High-throughput results from PubChem.
RE007 growth inh – qHTS Assay for Inhibitors of the HIV-1 protein Vpr; S. pombe RE007 Vpr strain, BacTiter-Glo ATP luminescence, 24 h; control for the full effect not named in the record; Potency, µM (titrated, usually from 92.2 µM), inactives show top-dose activity change, negative = less growth; actives 0.21% (n = 360,000); active = well fitted falling curve with a large enough effect; inconclusive = small, poorly fitted or top-dose-only effect; inactive = no such curve, though single readings can be large or run the other way;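 further: on the % scale 0 is the no-effect control and ±100 the full control effect; nearly all actives have a fitted effect of over 50% in size; the assay follows cell death caused by Vpr and the record does not say whether a fall means rescue or toxicity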
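Fission yeast strain RE007, carrying one chromosomally integrated HIV-1 vpr copy, was seeded at OD 0.01 in PMG+AL medium with 23 nL pinned compound. After 24 h at 30 °C and 99% humidity, viability was read by BacTiter-Glo luminescence.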
Lassa entry inh – qHTS for Inhibitors of binding or entry into cells for Lassa Virus | Lassa virus pseudotype entry inhibition, cell reporter; control for the full effect not named in the record | Potency, µM (highest dose often 37.9 µM), inactives show at the top dose activity change, negative = inhibition, usual class: inhibitors | actives 1.2% (n = 300,000) | AID 540256, 2011; active means well fitted inhibition curve with a large enough effect; inconclusive means small, poorly fitted or top-dose-only effect, or effect the other way; inactive means flat fitted curve, though single readings scatter; tested in HEK293 cells; further: on the % scale 0 is the no-effect control and ±100 the full control effect; nearly all actives have a fitted effect of over 50% in size; luciferase read-out
Cruzain noTriton – qHTS Assay for Promiscuous and Specific Inhibitors of Cruzain (without detergent) | Potency, µM, for the others: max response, negative = inhibition, actives largely listed as inhibitors | purified cruzain, Z-FR-AMC fluorescence, no detergent | actives 2.3% (n = 200,000) | Cruzipain (Trypanosoma cruzi), P25779; active means well fitted curve in the direction sought with a large enough effect; inconclusive means small, poorly fitted or top-dose-only effect, or another doubt; inactive means no such curve, though single readings can be large; an effect the other way counts as inactive or inconclusive;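 further: plate controls were enzyme without inhibitor for no effect and buffer without enzyme for full effect; nearly all actives have a fitted effect of over 40% in size; top concentration of the series not given in the record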
Target sequence (P25779 123-467 limits assumed): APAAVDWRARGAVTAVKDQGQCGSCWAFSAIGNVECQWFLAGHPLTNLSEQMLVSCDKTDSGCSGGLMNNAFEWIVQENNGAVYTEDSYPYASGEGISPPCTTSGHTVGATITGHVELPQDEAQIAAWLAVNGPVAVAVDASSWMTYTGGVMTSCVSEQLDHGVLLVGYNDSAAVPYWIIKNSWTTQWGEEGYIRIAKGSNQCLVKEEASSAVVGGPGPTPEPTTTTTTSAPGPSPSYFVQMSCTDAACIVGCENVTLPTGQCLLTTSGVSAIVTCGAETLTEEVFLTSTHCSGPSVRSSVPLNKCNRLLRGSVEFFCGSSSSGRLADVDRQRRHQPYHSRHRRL
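Detergent-free condition (0.00005% Triton X-100) in acetate buffer pH 5.5 with DTT. 1.5 nM enzyme and compound were pre-mixed 15 min, then 2 uM Z-FR-AMC substrate added; reaction progress from fluorescence change between first and third reads (60 s).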
NS1 function inh – qHTS Assay for Inhibitors of Influenza NS1 Protein Function; S. cerevisiae slowed by influenza A NS1, growth recovery by OD600; Potency, µM (series often up to 46.1 µM), without a hit: at the top dose activity, positive = more growth; actives 0.4% (n = 270,000); further: actives are rising curves; nearly all actives have a fitted effect of over 50% in size
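Compounds were scored for reversing the slow growth caused by influenza A NS1 in S. cerevisiae, measured by optical density at 600 nm. Assay medium contained 2% galactose at pH 6.0; NS1-free yeast of the same strain were the positive control.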
StopGo reporter – High Throughput Screening for Foot and Mouth Disease Virus Antivirals; human cells with a luciferase reporter of 2A StopGo recoding; control for the full effect not named in the record; Potency, µM (highest dose often 57.9 µM), for inactives: at the highest dose signal change, negative = less light; actives 1.2% (n = 410,000); active = well fitted falling curve with a large enough effect; inconclusive = small, poorly fitted or top-dose-only effect; inactive = no such curve, though single readings can be large or run the other way; tested in HEK293T cells; further: on the % scale 0 is the no-effect control and ±100 the full control effect; nearly all actives have a fitted effect of over 45% in size; luciferase light after 4 h
Marburg entry inh – qHTS for inhibitors of binding or entry into cells for Marburg Virus; Potency, µM (doses to about 37.8 µM), without a hit: top-dose activity change, negative = inhibition, actives largely listed as inhibitors; AID 540276, 2011; actives 1.8% (n = 300,000); Marburg virus pseudotyped entry inhibition, cell reporter; control for the full effect not named in the record; about a third of the inactives were read at about 46 µM; active = well fitted inhibition curve with a large enough effect; inconclusive = small, poorly fitted or top-dose-only effect, or effect the other way; inactive = flat fitted curve, though single readings scatter; tested in HEK293 cells; about a fifth of its hits are not listed in these tables; further: on the % scale 0 is the no-effect control and ±100 the full control effect; luciferase read-out
Cruzain Triton – qHTS Assay for Promiscuous and Specific Inhibitors of Cruzain (with detergent) | Cruzipain (Trypanosoma cruzi), P25779 | AID 1478, 2009 | actives 0.43% (n = 200,000) | purified cruzain, Z-FR-AMC fluorescence, 0.01% Triton | Potency, µM, for the others: max response, negative = inhibition, hits mostly inhibitors; active means well fitted curve in the direction sought with a large enough effect; inconclusive means small, poorly fitted or top-dose-only effect, or another doubt; inactive means no such curve, though single readings can be large; an effect the other way counts as inactive or inconclusive;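 further: plate controls were neutral wells for no effect and buffer without enzyme for full effect; nearly all actives have a fitted effect of over 40% in size; top concentration of the series not given in the record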
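Cysteine protease activity tested under reducing, mildly acidic conditions (100 mM sodium acetate pH 5.5, 5 mM DTT) plus 0.01% Triton X-100. Cruzain 1.5 nM; substrate Z-FR-AMC 2 uM; 15 min compound preincubation at room temperature.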
SARS PLP yeast – qHTS of Yeast-based Assay for SARS-CoV PLP; actives 0.19% (n = 330,000); AID 485353, 2010; S. cerevisiae expressing SARS-CoV PLpro, growth rescue; control for the full effect not named in the record; Potency, µM (top dose mostly 32.9 µM), for inactives: at the highest dose activity, positive = growth rescue; further: 0% is about no effect; nearly all actives have a fitted effect of over 55% in size; growth read by luminescence after 48 h
Starred values were filed as active, the others as inactive; ? = inconclusive; . = not tested or not shown; [ ] = dose if it differs, or a comment. Unless noted, the call rests on the fitted dose curve; in most records, active means well fitted rising curve with a large enough effect; inconclusive means small, poorly fitted or top-dose-only effect; inactive means no such curve, though single readings can be large or run the other way. Potency means the concentration at half of the fitted maximal effect.

SMILES | RE007 growth inh | Lassa entry inh | Cruzain noTriton | NS1 function inh | StopGo reporter | Marburg entry inh | Cruzain Triton | SARS PLP yeast
CCCN(C(=O)c1ccco1)c1nnc(-c2ccccc2C)s1 | 3% | . | . | -8% | 50%[activator] | . | . | -4%
COc1ccccc1OCCCn1cc(C(C)=O)c2ccccc21 | 28% | ? | . | -10% | ? | ? | . | 0%
Cc1nc2ccccc2n1CC(=O)NN | -3% | . | . | 3% | -12% | . | . | 0%
O=C(O)C1CC=CCC1C(=O)N1CCN(c2nc(-c3ccccc3Cl)c3cc(Br)ccc3n2)CC1 (stereo not given) | 30% | -8% | ? | 11% | -10% | -20% | -15% | -3%
CN(C)S(=O)(=O)c1ccc(Cl)c(C(=O)NCC2CCCCC2)c1 | 13% | 1% | . | 4% | 3% | -13%[46.1 µM] | . | 1%
O=C(NCC1CCCO1)C1CCN(S(=O)(=O)c2ccccc2)CC1 (stereo not given) | -25% | -6% | . | 2% | 1% | 2%[46.1 µM] | . | 0%
COc1ccc(/C=C2\CCc3ccccc3C2=O)cc1CN1CCOCC1 | -14% | ? | . | -2% | -26% | ? | . | 0%
CCCc1c(O)nc(SCC(=O)O)[nH]c1=O | -9% | 2% | . | 0% | -2% | 3% | . | 1%
CC(Cc1ccccc1)NC(=O)CSc1nc2nc3c(cc2c(=O)n1-c1ccccc1)COC(C)(C)C3 (stereo not given) | 11% | 3% | 14% | -2% | 8% | 10% | 2.9% | 7%
CC(=NNC(=S)Nc1cccc(C)c1)c1ccccn1 | -16% | ? | . | . | 39%[activator] | ? | . | .
COc1ccc(/C=C/c2nnc(NC(=O)COc3ccc(C)cc3)s2)cc1 | -4% | -3% | ? | 6% | -6% | -15% | -2.6% | 4%
CC1(C)CC(=O)C=C(NC2=CC3OC(c4ccccc4)OCC3OC2=O)C1 (stereo not given) | -16% | ? | 27% | -24% | 8.9µM* | 14µM* | -2.8% | 18%
COC(=O)c1cn(NC(=O)c2ccc(F)cc2)c(=O)c2ccccc12 | -7% | 12% | -6% | -13% | 18% | -5% | -0.2% | -7%
Cc1c(C(=O)N2CCOCC2)c(S(=O)(=O)Nc2ccc(Br)cc2F)c(C)n1C | 8% | 14%[46.1 µM] | . | -8% | 34%[activator] | 29%[46.1 µM] | . | -9%
Cc1cccc(C(=O)N2CCC(=O)N(C(COCc3ccccc3)Cc3ccccc3)CC2)c1 (stereo not given) | -12% | 5.8µM* | 10% | -9% | 0% | 1% | -3.2% | ?
COc1ccc(CNC(=O)c2cc(=O)c3c(C)cc(C)cc3o2)cc1 | -6% | . | . | -5% | -23% | . | . | -2%
Cc1cccn2c(=O)nc(SCC(=O)N3CCOCC3)nc12 | 3% | 16% | . | . | 2% | 11% | . | 0%
COc1ccc(NC2CCCN(C(=O)c3cccs3)C2)cc1 (stereo not given) | -5% | . | . | -2% | 17% | . | . | -5%
Cc1ccc(CNc2oc(-c3ccc(COc4ccc(Cl)cc4)o3)nc2C#N)cc1 | . | -7%[46.1 µM] | ? | . | ? | 1%[46.1 µM] | -1.1% | .
CC(C)(C)c1cc(C(F)(F)F)nc(SCCCNC(=O)c2ccco2)n1 | ? | -26% | 16% | -132% | ? | ? | -3.5% | -17%
CCc1ccc(N(CC(=O)NCc2ccco2)C(=O)CCC(=O)Nc2ccccn2)cc1 | 0% | -8% | . | 6% | -1% | -9%[46.1 µM] | . | 0%
CCN(CC)CCN(C(=O)/C=C/c1cccs1)c1nc2ccc(C)cc2s1 | 20% | . | . | -14% | -18% | . | . | -3%
Cc1[nH]c2ccccc2c1/C=N/NC(=O)c1cccc(Br)c1 | 4% | -19%[46.1 µM] | . | 0% | 0% | 3%[46.1 µM] | . | -1%
CCOC(=O)c1nnn(-c2ccc(OC)cc2)c1N | 27% | ? | 13% | 4% | 52%[activator] | 13%[46.1 µM] | -0.4% | 24%
Cc1ccc(S(=O)(=O)NCc2nc(-c3ccccc3)no2)cc1 | 8% | -13% | . | -10% | 0% | -2% | . | -10%

Some of the entries so far, with two lines to a compound.
Values run as follows: RE007 growth inh	Lassa entry inh	Cruzain noTriton	NS1 function inh	StopGo reporter	Marburg entry inh	Cruzain Triton	SARS PLP yeast
- O=C(O)C1CC=CCC1C(=O)N1CCN(c2nc(-c3ccccc3Cl)c3cc(Br)ccc3n2)CC1 (stereo not given)
 : 30%	-8%	?	11%	-10%	-20%	-15%	-3%
- CN(C)S(=O)(=O)c1ccc(Cl)c(C(=O)NCC2CCCCC2)c1
 : 13%	1%	.	4%	3%	-13%[46.1 µM]	.	1%
- O=C(NCC1CCCO1)C1CCN(S(=O)(=O)c2ccccc2)CC1 (stereo not given)
 : -25%	-6%	.	2%	1%	2%[46.1 µM]	.	0%
- COc1ccc(/C=C2\CCc3ccccc3C2=O)cc1CN1CCOCC1
 : -14%	?	.	-2%	-26%	?	.	0%
- CCCc1c(O)nc(SCC(=O)O)[nH]c1=O
 : -9%	2%	.	0%	-2%	3%	.	1%

Continuation:
SMILES | RE007 growth inh | Lassa entry inh | Cruzain noTriton | NS1 function inh | StopGo reporter | Marburg entry inh | Cruzain Triton | SARS PLP yeast
COc1cccc(C(=O)NNC(=O)c2cccc3ccccc23)c1 | 3% | -1% | . | . | 20% | -9% | . | .
CN(C)c1ccc(/C=N/NC(=O)c2ccc(Cn3cc(Br)cn3)o2)cc1 | 10% | 2% | -13% | -27% | 41%[activator] | 23% | -8.5% | 5%
Cc1cc(OCC(=O)N(C)Cc2ccccc2)ccc1Br | -6% | . | . | -24% | 65%[activator] | . | . | 0%
CC(=O)Oc1ccc2occ(/C=N/c3cc(=O)[nH]c(=S)[nH]3)c(=O)c2c1 | 3% | . | . | ? | -4% | . | . | 0%
CCn1c(=O)c2cc(C(=O)NCCc3cccc(C)c3)sc2c2ccccc21 | . | 9%[46.1 µM] | -13% | . | -8% | -19%[46.1 µM] | 2.5% | .
Cn1c(=O)c(C(=O)c2ccc(S(C)(=O)=O)c(Cl)c2Cl)c(O)c2ccccc21 | 23% | 3%[46.1 µM] | . | . | 15% | -12%[46.1 µM] | . | .
CCCn1c(=O)c2ccccc2n2c(SCCOc3ccc(OC)cc3)nnc12 | -12% | -5% | ? | -22% | 12% | -8% | -2.1% | 5%
COc1cc(S(=O)(=O)n2nc(C)cc2C)ccc1Cl | 22% | -1%[46.1 µM] | . | -14% | -8% | ? | . | 0%
O=C(COc1ccc2ccccc2c1)NNC(=O)c1cccs1 | -4% | -1% | ? | -8% | -4% | 8% | -2.1% | 18%
Cc1ccc(CCNC(=O)c2nn(C)c3c2CSc2ccccc2-3)cc1 | . | 24%[46.1 µM] | -9% | . | -11% | 1%[46.1 µM] | -4.1% | .
Cn1c(Cc2cccc3ccccc23)nnc1SCc1ccc([N+](=O)[O-])cc1 | 0% | ? | -9% | 13% | -21% | ? | -1.0% | 27%
COc1ccc(C(C[N+](=O)[O-])c2c(C)cc3ccccn23)c(OC)c1 (stereo not given) | ? | . | . | 9% | ? | ? | . | -6%
COc1ccc(NC(=O)c2oc3ccccc3c2NC(=O)C2CC2)cc1 | 1% | -11% | 6% | -9% | -13% | 3% | -5.7% | 2%
CC1=C(C(=O)Nc2ccccc2)C(c2ccc[nH]2)n2ncnc2N1 (stereo not given) | . | 10%[46.1 µM] | -10% | . | 0% | . | -6.9% | -2%
CC(=O)Nc1cccc(C(=O)OCC(=O)NNC(=O)c2ccc([N+](=O)[O-])cc2)c1 | 27% | ? | . | . | -14% | 9% | . | 2%
COc1ccc(S(=O)(=O)N2CCOCC2)cc1NC(=O)c1cccc(-n2cccc2)c1 | 1% | ? | . | . | 13% | 1% | . | -3%
O=C(OCc1nnc(-c2ccc(Br)cc2)o1)c1ccco1 | ? | 4% | . | -39% | 12% | 12% | . | 4%
Cc1c(C(=O)c2ccc(Cl)c(Cl)c2)cnc2cc3c(cc12)OCO3 | 11% | ? | -7% | 5% | ? | ? | -6.2% | -17%
Cc1cccnc1NC(=O)Nc1ccc(F)cc1 | 1% | 28% | 7% | -5% | 50%[activator] | 21% | -1.3% | 1%
CCCC(=O)Nc1sc(C(=O)Nc2cccc(N)c2)c(C)c1C(=O)OC | 7% | ? | . | 3% | 33% | ? | . | -1%
CCOC(=O)C1CCN(C(=O)CN2C(=O)c3cccnc3Oc3ccc(C)cc32)CC1 | 5% | -1%[46.1 µM] | . | -5% | -20% | 17%[46.1 µM] | . | -2%
C[N+](C)(C)CCOP(=O)([O-])OC[C@H](O)CO | 30% | 2% | 13% | 7% | -20% | -4% | -0.7% | 4%
Cc1ccc(N2C(=O)CC(Cc3ccc(Cl)cc3)C2=O)cc1 (stereo not given) | 2% | 6% | . | 6% | -19% | 1% | . | 3%
CCOc1cc(CNCC2CCCN2CC)cc(Cl)c1OC (stereo not given) | 1% | 2% | . | -2% | -1% | 12% | . | 1%
CCCN(CC(=O)Nc1ccc(F)c(F)c1F)C(=O)C1CC(=O)N(Cc2ccccc2)C1 (stereo not given) | 2% | -4%[46.1 µM] | . | . | 16% | 25% | . | 6%
COc1ccc(-c2nc3ccc(C)cn3c2NCc2ccc3c(c2)OCO3)cc1 | -13% | . | . | -4% | 16% | . | . | -3%
O=S(=O)(c1ccc(Oc2ccc(Cl)cc2)c(S(=O)(=O)N2CCCCC2)c1)N1CCCCC1 | 1% | -4% | ? | ? | -1% | ? | 3.7% | -1%
COc1ccc(C(C)NC(=O)Nc2ccc(C(C)=O)cc2)cc1OC (stereo not given) | 1% | . | . | -2% | 42%[activator] | . | . | -4%
Cc1cccc(NC(=O)CCN2C(=O)c3ccccc3C2=O)c1 | 33% | . | . | 20% | 4% | . | . | 11%
